# CtBP-E1A blk: qHTS Assay for Inhibitors of the CtBP/E1A Interaction | CtBP / adenovirus E1A interaction (AlphaScreen) | AlphaScreen GST-E1A/His-CtBP binding, 1536-well; active compounds read low; control for the full effect not named in the record | activity change, % (no concentration beside the values) | actives 0.49% (n = 340,000) | AID 651724, 2012; in the data active means activity change below about -65%; inconclusive means about -30% to -65%; inactive means above about -30%; further: on the % scale 0 is the no-effect control and ±100 the full control effect
#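 GST-E1A and His-tagged CtBP (125 nM each as 5X stock) were preincubated with pin-transferred compound for 2 h at 37 °C in the dark, then glutathione donor and nickel acceptor beads were added for 1 h before AlphaScreen reading.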
# D2 potentiator: Beta-Arrestin HTS for Positive Allosteric Modulators of the Human D2 Dopamine Receptor: Potentiators | DiscoveRx D2 beta-arrestin cells, luminescence, 90 min; 100% = 57 uM dopamine signal | potentiation, % (concentration not given with the values) | actives 0.23% (n = 360,000); active = potentiation of 50% or more; inconclusive = 30% to 50%; inactive = 30% or less;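 further: compound concentration not given in the record; tested on top of an EC20 dose of dopamine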
# Target sequence (P14416 whole entry, looked up): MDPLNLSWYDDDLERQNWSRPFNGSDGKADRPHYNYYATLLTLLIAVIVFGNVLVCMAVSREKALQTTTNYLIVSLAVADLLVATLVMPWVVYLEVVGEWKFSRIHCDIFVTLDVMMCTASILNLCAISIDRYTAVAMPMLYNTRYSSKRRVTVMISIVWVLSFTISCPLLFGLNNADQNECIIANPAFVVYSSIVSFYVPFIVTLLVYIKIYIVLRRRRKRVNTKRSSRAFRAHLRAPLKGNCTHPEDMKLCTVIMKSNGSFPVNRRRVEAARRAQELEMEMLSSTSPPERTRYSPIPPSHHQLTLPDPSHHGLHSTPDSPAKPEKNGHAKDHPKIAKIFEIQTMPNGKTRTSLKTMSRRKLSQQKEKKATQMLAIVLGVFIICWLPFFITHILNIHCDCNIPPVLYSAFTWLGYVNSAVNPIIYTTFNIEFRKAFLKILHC
#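 PathHunter D2 cells, attached overnight at 37 deg C, received compound in DMSO plus dopamine at EC20 (50 nM final) for 90 min at 37 deg C. Beta-arrestin recruitment was read as luminescence after 1 h with detection reagent at ambient temperature.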
# Six1-Eya2 inh: qHTS Assay for Inhibitors of the Six1/Eya2 Interaction | AID 651725, 2012 | Homeobox protein SIX1 (Homo sapiens) + Protein phosphatase EYA2 (Homo sapiens), … | actives 0.56% (n = 360,000) | activity change, % (concentration not given with the values) | AlphaScreen GST-Six1/His-Eya2 binding, biochemical; active compounds read low; control for the full effect not named in the record; in the data active = activity change below about -65%; inconclusive = about -30% to -65%; inactive = above about -30%; further: on the % scale 0 is the no-effect control and ±100 the full control effect
#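 GST-Six1 + His-Eya2 (5X stock: 250/500 nM); Tris pH 8.0, 300 mM NaCl, 0.05% BSA, 0.02% Tween 20; GSH donor/Ni acceptor beads; 1 h 37 °C dark; AlphaScreen readout.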
# D2 agonist: Beta-Arrestin HTS for Positive Allosteric Modulators of the Human D2 Dopamine Receptor: Agonists | DiscoveRx PathHunter D2 beta-arrestin, luminescence, 90 min; 100% = 57 uM dopamine signal | activation, % (concentration not given with the values) | AID 624465, 2012 | actives 0.084% (n = 360,000) | D(2) dopamine receptor (Homo sapiens), P14416; in the data active = activation above about 40%; inconclusive = about 15% to 40%; inactive = below about 15%; further: compound concentration not given in the record; the text of the record calls up to 30% inactive
#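 Agonist mode: compounds alone added to overnight-plated D2 PathHunter cells for 90 min at 37 C, with 57 uM final dopamine (EC100) defining full response. Beta-arrestin recruitment detected by chemiluminescent reagent, read after 1 h at ambient temperature.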
# TRPML1 ag: qHTS for Agonists of the Human Mucolipin Transient Receptor Potential 1 (TRPML1). activation, % (concentration not given with the values). TRPML1-expressing cells, Ca2+ dye fluorescence, FDSS; host cell line not named in the record; reference of the full effect not given here. Mucolipin-1 (Homo sapiens), Q9GZU1. actives 0.12% (n = 410,000). AID 624414, 2012; in the data active = activation above about 50%; inconclusive = about 30% to 50%; inactive = below about 30%; further: 0% is about no effect; the text of the record puts the active cut at 80%
# Target sequence (Q9GZU1 whole entry, looked up): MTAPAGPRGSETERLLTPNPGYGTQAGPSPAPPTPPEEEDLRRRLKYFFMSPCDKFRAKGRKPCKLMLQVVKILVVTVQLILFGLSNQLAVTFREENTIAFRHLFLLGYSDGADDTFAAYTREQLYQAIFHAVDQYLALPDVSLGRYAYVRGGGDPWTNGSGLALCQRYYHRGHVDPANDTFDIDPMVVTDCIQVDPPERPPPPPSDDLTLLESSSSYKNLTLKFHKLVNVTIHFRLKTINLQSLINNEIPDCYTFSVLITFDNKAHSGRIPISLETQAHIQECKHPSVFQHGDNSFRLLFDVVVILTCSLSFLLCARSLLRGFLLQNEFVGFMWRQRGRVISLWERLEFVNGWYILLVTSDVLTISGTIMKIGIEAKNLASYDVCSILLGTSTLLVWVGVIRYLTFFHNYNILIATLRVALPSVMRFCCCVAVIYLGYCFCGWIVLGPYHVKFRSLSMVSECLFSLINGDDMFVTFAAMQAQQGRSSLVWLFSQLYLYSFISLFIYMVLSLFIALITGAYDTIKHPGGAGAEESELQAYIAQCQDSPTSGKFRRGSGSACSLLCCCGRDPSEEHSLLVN
#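 Calcium fluorescence on an FDSS kinetic reader gave the read-out. Tet-induced TRPML1-DL cells were plated overnight, dye-loaded (Ca8 with quencher, 45-90 min, room temperature, dark), then read 110 s after compound addition, and again 110 s after 4uM final 54-4 (EC80).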
# PINK1 expr mod: A Quantitative High throughput Screen to Identify Chemical Modulators of PINK1 Expression; PINK1 immunofluorescence, high-content cytometry, 24 h; Potency, µM (series often up to 76.6 µM), for inactives: at the top dose activation (PINK1 increase), actives largely listed as activators; actives 0.2% (n = 410,000); AID 624263, 2012; active = well fitted activation curve with a large enough effect; inconclusive = small, poorly fitted or top-dose-only effect; inactive = flat fitted curve, though single readings scatter; cell line not stated here;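 further: potency means the concentration at half of the fitted maximal effect; % of control where 0% means no effect; nearly all actives have a fitted effect of over 65% in size; a mitochondrial uncoupler was the plate control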
#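 Cells are seeded, rested 12 hours, then given compound at five concentrations or DMSO for 24 hours. After fixation, blocking and antibody staining, PINK1 amount and mitochondrial localization are scored; CCCP serves as control.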
# * hit, by the source's call; ? = inconclusive; . = no result given; & = joins results of further samples; [ ] = remark or other dose.
SMILES,CtBP-E1A blk,D2 potentiator,Six1-Eya2 inh,D2 agonist,TRPML1 ag,PINK1 expr mod
COc1ccc(OC)c(/C=N/NC(=O)CC2C(=O)NN=C2C)c1 (configuration not stated),-1,-3,5,-0.3,-0.4,0.1%
CCC(C)[C@@H](N)C(=O)N/N=C/c1ccc2ncccc2c1 (some centres not stated),-11,-9,-9,-1.0,-0.7,0.1%
COc1ccc(-c2ccc3c(c2)c(-c2cccs2)c(-c2cc(OC)cc(OC)c2)n3C)cc1,-6,-4,3,-0.7,0.1,2.2%
Cc1ccc2nc(-c3ccncc3)c(Nc3ccccc3)n2c1,-2,-1,8&0,1.5,-0.9&1.5,1.0%&-3.7%
O=C(CN(C(=O)CCC(=O)Nc1nccs1)c1ccc(F)cc1)NCc1ccc2c(c1)OCO2,-1,-2,-3,-1.8,0.1,-1.5%
CCC(C)c1ccc(S(=O)(=O)N2CCN(CC(O)CN3CCOCC3)CC2)cc1 (configuration not stated),2,-3,2,-0.3,-0.7,0.6%
Cc1ccc(-c2nn(-c3ccccc3)cc2C(=O)OCC(=O)Nc2ncc(Cl)cc2Cl)cc1,-8,-6,4,-0.4,2.3,4.4%
Cn1cccc1/C=N/NC(=O)c1cc(-c2cccs2)nc2ccccc12,-3,-17,?,-2.4,1.3,15%
Cc1ccc(S(=O)(=O)N2C[C@H]3[C@H]4C(=O)N(C5CCCCC5)C(=O)[C@H]4CC(=O)[C@H]3[C@@H]2c2ccccc2Cl)cc1,0,-4,-7,-1.4,?,1.5%
CN(C)CCCNC(=S)N(CCCN(C)C)Cc1cc2cc3c(cc2[nH]c1=O)OCO3,.,-16,0,-2.3,-0.5,-1.3%
COc1ccccc1NC(=O)C1=C(C)NC(=O)NC1c1cc(C)cs1 (configuration not stated),21,12,25,0.5,-0.3,-0.9%
O=C1CCc2cc(S(=O)(=O)NCCC(=O)NC3CCN(Cc4ccccc4)CC3)ccc2N1,1,-24,-2,-2.7,0.8,-2.1%
CCCn1c(NC(=O)c2ccc(Br)cc2)nc2ccccc21,3,2,3,0.1,-0.1,18%[38.3 µM]
CNC(=O)NC(=O)COc1ccc2oc3c(c2c1)CCCC3,-15,6,0,1.6,0.7,6.2%
O=C1CCCN1CCCNc1nc2c(S(=O)(=O)c3ccccc3)nnn2c2ccc(Cl)cc12,?,16,?,5.1,-0.1,-0.3%

# Given with values under each structure: part of the list above
# Under each structure – CtBP-E1A blk, D2 potentiator, Six1-Eya2 inh, D2 agonist, TRPML1 ag, PINK1 expr mod
> COc1ccccc1NC(=O)C1=C(C)NC(=O)NC1c1cc(C)cs1 (configuration not stated)
    21, 12, 25, 0.5, -0.3, -0.9%
> O=C1CCCN1CCCNc1nc2c(S(=O)(=O)c3ccccc3)nnn2c2ccc(Cl)cc12
    ?, 16, ?, 5.1, -0.1, -0.3%

# The listing continues:
SMILES,CtBP-E1A blk,D2 potentiator,Six1-Eya2 inh,D2 agonist,TRPML1 ag,PINK1 expr mod
O=C(NC(Cc1c[nH]c2ccccc12)C(=O)Nc1ccc(OC(F)(F)F)cc1)c1cccs1 (configuration not stated),-9,-10,0,-4.7,3.2,3.2%
CCc1nc2ccc(C(=O)NCC3CCCCC3)cn2c1N(C)Cc1ccc(OC)cc1,-1,-12,-9,-4.4,-1.0,?
CCC(C)(C(=O)NC1CCCCC1)N(C)C(=O)c1ccc2c(c1)OCO2 (configuration not stated),12,-3,3,-3.2,-1.0,-1.4%
Cc1ccc(C(=O)NC(=S)Nc2ccc(N3CCOCC3)cc2)cc1,0,-8,?,0.3,-0.2,-1.0%
CCc1ccc2nc(NC(=O)c3cc(C)on3)sc2c1,-12,-4,4,-2.5,0.0,3.6%
Cc1ccc(N(CC(=O)N2CCN(c3ccccc3F)CC2)S(=O)(=O)c2c(C)noc2C)cc1,4,-8,4,-13,-0.9&2.9,0.7%&0.0%
COc1ccc(CCNC(=O)c2ccc(CN3CCOCC3)cc2)cc1,-2,-9,10,-2.1,0.9,2.7%[38.3 µM]
COC(=O)Cn1c(=NC(=O)CSCC(=O)Nc2cc(C)on2)sc2ccccc21,8,-2,2,-1.8,-0.5,0.4%
CN(c1ccccc1)S(=O)(=O)c1ccc2c(c1)OCCO2,0,-8,-2,6.4,-0.7,0.7%
CC1=C(C(=O)Nc2cccc(C(=O)NCC(C)c3ccccc3)c2)SCCO1 (configuration not stated),4,-12,-8,3.0,0.9,-0.9%
CN(C)c1ncc(C(=O)O)cn1,-22,-13,4,3.0,-0.6,-0.6%
COC(=O)c1cnc(SCc2ccc([N+](=O)[O-])cc2)n1C,-3,-6,0,-3.8,2.1,-1.0%
COC(=O)Cn1c(O)c(N=NC(=O)CNC(=O)c2ccc3c(c2)OCCO3)c2ccccc21,14,-9,10,-2.1,0.0,-0.7%
COc1cccc(OC)c1C(=O)NC(=S)NCc1ccco1,6,-8,-1,0.9,2.1,0.9%
CCC(=O)Oc1oc(-c2ccccc2)nc1C=Nc1ccc(C)cc1,4,-4,9,-6.9,0.7,-1.3%

# An excerpt of these results, with bars between the fields:
Compound | CtBP-E1A blk | D2 potentiator | Six1-Eya2 inh | D2 agonist | TRPML1 ag | PINK1 expr mod
COc1cccc(OC)c1C(=O)NC(=S)NCc1ccco1 | 6 | -8 | -1 | 0.9 | 2.1 | 0.9%
COC(=O)Cn1c(O)c(N=NC(=O)CNC(=O)c2ccc3c(c2)OCCO3)c2ccccc21 | 14 | -9 | 10 | -2.1 | 0.0 | -0.7%
CC1=C(C(=O)Nc2cccc(C(=O)NCC(C)c3ccccc3)c2)SCCO1 (configuration not stated) | 4 | -12 | -8 | 3.0 | 0.9 | -0.9%
O=C(NC(Cc1c[nH]c2ccccc12)C(=O)Nc1ccc(OC(F)(F)F)cc1)c1cccs1 (configuration not stated) | -9 | -10 | 0 | -4.7 | 3.2 | 3.2%
Cc1ccc(N(CC(=O)N2CCN(c3ccccc3F)CC2)S(=O)(=O)c2c(C)noc2C)cc1 | 4 | -8 | 4 | -13 | -0.9&2.9 | 0.7%&0.0%
CCc1ccc2nc(NC(=O)c3cc(C)on3)sc2c1 | -12 | -4 | 4 | -2.5 | 0.0 | 3.6%
COc1ccc(CCNC(=O)c2ccc(CN3CCOCC3)cc2)cc1 | -2 | -9 | 10 | -2.1 | 0.9 | 2.7%[38.3 µM]

# Additional structures.
SMILES,CtBP-E1A blk,D2 potentiator,Six1-Eya2 inh,D2 agonist,TRPML1 ag,PINK1 expr mod
Cc1ccnc(NC(=O)CS(=O)(=O)Cc2ccccc2)c1,-8,6,0,0.2,1.4,-0.7%
COc1ccc(/C=N/n2c(-c3n[nH]c4c3CCC4)n[nH]c2=S)c(OC)c1OC,.,-12,-2,1.1,1.5,2.6%
COCCNC(=O)CS(=O)Cc1nc(-c2ccc(Cl)cc2)oc1C (configuration not stated),18,-2,18,2.2,-0.6,4.7%
Cc1ccc(S(=O)(=O)CCC(=O)OCC(=O)c2c[nH]c3ccccc23)cc1,-3,-1,-7,-4.3,0.9,1.5%
N/C(=N\OC(=O)CCC1CCCCC1)c1cccc([N+](=O)[O-])c1,-3,-10,-9,3.7,-0.1,-0.4%
CC(=O)CC(=O)Nc1ccc(Nc2ccccc2)cc1,0,6,-1,3.2,0.7,1.1%
CCOC(=O)c1c(CC(C)C)csc1NC(=O)C(C)C,37,-5,31,-4.2,-0.2,13%
COc1cc(S(=O)(=O)N2CCOCC2)ccc1NC(=O)COC(=O)c1cc(OC)c(OC)c(OC)c1,-7,-11,-4,-0.1,1.0,3.3%
CC1(C(=O)Nc2ccc3ccccc3c2)CCC(=O)N1C1CCN(Cc2ccccc2)CC1 (configuration not stated),-7,-14,0,-3.9,0.4,2.6%
COc1ccc(OC)c(NC(=O)COC(=O)C2CCN(C(=O)c3ccc(Cl)cc3)CC2)c1,-8,4,-13,-0.1,0.5,1.4%
O=C(/C=C/c1ccc(OC(F)F)cc1)Nc1cccc(S(=O)(=O)N2CCOCC2)c1,-4,4,-4,?,1.9,6.5%
Nn1c(COc2ccccc2F)nnc1SCC(=O)NC1CCCCC1,5,-2,0,-0.4,-0.7,-2.5%
COc1cccc(S(=O)(=O)N(C)C[C@H]2OCc3cn(nn3)CCCC(=O)N([C@@H](C)CO)C[C@@H]2C)c1,0,-7,10,-3.2,1.3,0.3%
CC(C)c1ccc(N(CC(=O)NCc2ccco2)C(=O)CCC(=O)Nc2nccs2)cc1,1,-13,-9,1.0,0.2,1.5%
Cn1c(N)c(N2CCCCC2)c(=O)n(CC(=O)Nc2ccc(Cl)c(Cl)c2)c1=O,-11,8,-5,-1.8,-1.1,4.4%
CCCCC(=O)N(C)c1c(C)nc2ccc(C(=O)N3CCN(C(=O)c4ccco4)CC3)cn12,-13,-9,6,-5.6,-0.7,0.9%
C=CCNC(=S)Nc1ccc(Cl)c(S(=O)(=O)N2CCOCC2)c1,9,-6,-6,3.8,2.3,0.3%
Cc1cccc(-n2cnc(C(=O)NNC(=S)Nc3ccc(Cl)cc3)c2)n1,-88*,-19,-90*,-1.0,-0.3,-0.7%
O=C(Oc1ccc2c(c1)O/C(=C\c1ccncc1)C2=O)c1cccs1,6,-7,-20,-0.5,3.6,2.4%
CCSc1nnc(NC(=O)[C@@H](NC(=O)c2ccccc2F)C(C)C)s1,3,-7,8,-0.3,1.4,-1.2%
CCOC(=O)c1ccc(NC(=S)N2CCCC2c2ccc(OC)c(OC)c2)cc1 (configuration not stated),-5,7,-2,2.8,-0.5,6.4%
CCOC(=O)C1=CC[C@@H](c2ccco2)N(S(=O)(=O)c2ccc(C)cc2)[C@H]1C(=O)OCC,1,-2,-7,-1.5,3.3,0.1%
Cc1ccc(/C=N/n2c(=O)c(C(C)(C)C)nn3cnnc23)cc1,-9,-14,0,2.7,0.7,4.6%
O=C(CSc1nc2ccc(Nc3nc(N4CCOCC4)nc(N4CCOCC4)n3)cc2s1)Nc1ccccc1F,0,-2,4,-0.4,0.3,-0.2%
C/C(=C\c1ccco1)C1C(C#N)=C(N)OC2=C1C(=O)CC(C)(C)C2 (configuration not stated),-3,-6,-10,-3.9,0.0,1.3%
OCC1CSC(=S)N1Cc1ccccc1 (configuration not stated),9,-3,3,0.4,-0.6,2.6%
CCc1nc2ccc(C(=O)NCCCn3ccnc3)cn2c1N(C)C(=O)c1cccc(OC)c1,-17,-11,5,-3.5,0.4,0.4%
COCCCNCC(O)COc1ccccc1F (configuration not stated),-9,-43,1,-3.8,-0.2,0.4%
CC(C)c1ccc(S(=O)(=O)N2CCN(C(C)C(=O)N3CCCC3)CC2)cc1 (configuration not stated),-5,-11,10,-0.6,1.6,-1.1%
O=C(COc1ncnc2sccc12)N1CCc2ccccc2C1,7,0,5,-0.2,3.5,-1.3%

# High-throughput results as filed in PubChem.
